CtBP-E1A blk = blocks the CtBP interaction with E1A | AlphaScreen GST-E1A/His-CtBP binding, 1536-well; stronger effect = lower value; control for the full effect not named in the record | activity change, % (no concentration beside the values) | 340,000 compounds, 0.49% hits | AID 651724; in the data active means activity change below about -65%; inconclusive means about -30% to -65%; inactive means above about -30%; further: on the % scale 0 is the no-effect control and ±100 the full control effect
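Protein mix (5X: 125 nM each GST-E1A, His-CtBP) was incubated with pinned compound 2 h at 37 deg C in dark, in 50 mM Tris pH 8.0 buffer with 300 mM NaCl. Glutathione donor and nickel acceptor beads followed; AlphaScreen signal read after 1 h.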
TRPV1 PAM = potentiators of human vanilloid receptor 1 (TRPV1); 320,000 compounds, 0.02% hits; potentiation, % at 8.33 µM; TRPV1-expressing cells, Fluo-8 calcium influx, capsaicin EC20 potentiation; host cell line not named in the record; control for the full effect not named in the record; Q8NER1; AID 540277; active means potentiation above 80%; inconclusive means 30% to 80%; inactive means below 30%; further: 0% is about no effect
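Cells expressing TRPV1 were dye-loaded with Fluo-8 and read kinetically: 10 s baseline, 3 min after compound (agonist portion), then 2 min after EC20 capsaicin (allosteric enhancer portion). Calcium-bound dye fluorescence at 480/520 nm.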
Six1-Eya2 inh = inhibitors of human Six1/Eya2 interaction; Q15475+O00167; AlphaScreen GST-Six1/His-Eya2 binding, biochemical; stronger effect = lower value; control for the full effect not named in the record; activity change, % (test concentration not listed); 360,000 compounds, 0.56% hits; in the data active = activity change below about -65%; inconclusive = about -30% to -65%; inactive = above about -30%; further: on the % scale 0 is the no-effect control and ±100 the full control effect
Target sequence (O00167 whole entry, looked up): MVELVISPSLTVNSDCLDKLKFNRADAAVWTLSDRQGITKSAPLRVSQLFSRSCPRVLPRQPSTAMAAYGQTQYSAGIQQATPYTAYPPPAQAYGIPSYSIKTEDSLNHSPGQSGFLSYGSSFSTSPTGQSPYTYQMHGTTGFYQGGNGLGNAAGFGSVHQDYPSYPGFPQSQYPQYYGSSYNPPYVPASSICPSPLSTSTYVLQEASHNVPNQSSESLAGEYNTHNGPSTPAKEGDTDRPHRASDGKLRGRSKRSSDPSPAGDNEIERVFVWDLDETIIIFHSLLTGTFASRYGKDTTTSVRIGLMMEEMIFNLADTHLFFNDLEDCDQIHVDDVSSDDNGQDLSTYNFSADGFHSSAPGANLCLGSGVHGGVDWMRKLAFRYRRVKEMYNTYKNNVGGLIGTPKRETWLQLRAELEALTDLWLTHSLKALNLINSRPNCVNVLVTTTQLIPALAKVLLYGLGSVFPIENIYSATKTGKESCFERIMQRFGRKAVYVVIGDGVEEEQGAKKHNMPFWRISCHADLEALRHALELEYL
Target sequence (Q15475 whole entry, looked up): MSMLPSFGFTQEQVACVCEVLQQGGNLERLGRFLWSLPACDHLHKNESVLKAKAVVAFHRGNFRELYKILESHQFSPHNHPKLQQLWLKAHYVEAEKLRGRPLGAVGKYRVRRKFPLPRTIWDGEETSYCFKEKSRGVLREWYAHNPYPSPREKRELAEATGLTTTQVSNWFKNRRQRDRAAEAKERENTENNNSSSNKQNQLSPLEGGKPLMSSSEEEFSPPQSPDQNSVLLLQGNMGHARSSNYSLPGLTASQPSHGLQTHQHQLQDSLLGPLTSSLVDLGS
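GST-Six1 + His-Eya2 (5X stock: 250/500 nM); Tris pH 8.0, 300 mM NaCl, 0.05% BSA, 0.02% Tween 20; GSH donor/Ni acceptor beads; 1 h 37 °C dark; AlphaScreen readout.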
TRPML1 agonist = human mucolipin-1 channel agonism; Q9GZU1; TRPML1-expressing cells, Ca2+ dye fluorescence, FDSS; host cell line not named in the record; reference of the full effect not given here; activation, % (no concentration beside the values); 410,000 compounds, 0.12% hits; in the data active = activation above about 50%; inconclusive = about 30% to 50%; inactive = below about 30%; further: 0% is about no effect; the text of the record puts the active cut at 80%
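TRPML1-DL cells, Tet-induced overnight (~16 h, 37 degrees C), loaded 45-90 min at room temperature with Ca8 no-wash calcium dye plus quencher. FDSS fluorescence: 10 s baseline, compound pin-transfer, 110 s agonist read, then EC80 54-4 (4uM final) and 110 s antagonist read.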
TRPML1 inh = blocks the human TRPML1 channel. Q9GZU1. TRPML1-inducible cells, Ca2+ dye fluorescence, FDSS; stronger effect = lower value; inhibition of EC80 agonist-evoked calcium signal. activity change, negative = inhibition, % (test concentration not listed). 390,000 compounds, 0.02% hits; in the data active means activity change below about -50%; inconclusive means about -30% to -50%; inactive means above about -30%;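 further: stimulus is agonist 54-4 at its EC80 concentration; on the % scale 0 is the no-effect control and ±100 the full control effect; compound concentration not given in the record; the text of the record puts the active cut at -80%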
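Calcium fluorescence in TRPML1-DL cells induced overnight with Tet: a 110 s read after compound pin addition, then a 110 s antagonist read after challenge with 54-4 at 4 uM final (EC80).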
D2 potentiator = potentiates the human D2 dopamine receptor allosterically | 360,000 compounds, 0.23% hits | DiscoveRx D2 beta-arrestin cells, luminescence, 90 min; 100% = 57 uM dopamine signal | potentiation, % (no concentration beside the values) | P14416 | AID 624464; active = potentiation of 50% or more; inconclusive = 30% to 50%; inactive = 30% or less;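 further: compound concentration not given in the record; tested on top of an EC20 dose of dopamine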
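D2 cells co-treated with compound plus 50 nM dopamine (EC20) for 90 min at 37 deg C to detect potentiation. Beta-arrestin recruitment was read as enzyme-fragment luminescence after 1 h at ambient temperature. Full response was set by 57 uM dopamine.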
* hit, by the source's call; u = inconclusive; x = not tested or not shown.

Below each compound: CtBP-E1A blk, TRPV1 PAM, Six1-Eya2 inh, TRPML1 agonist, TRPML1 inh, D2 potentiator
> O=C(O)CC1S/C(=N/N=C/c2ccc([N+](=O)[O-])cc2)N(c2ccc(O)cc2)C1=O (stereo not given)
  3, -3, 0, -1.1, 12, 8
> COc1ccc(CC2(CO)CCN(C(C)COc3ccccc3)CC2)cc1 (stereo not given)
  12, -10, 13, -0.2, 3, 25
> CCCC(NC(=O)C(C)NC(=O)CO/N=C1\C=C2CCC3C4CCC(C(C)=O)[C@@]4(C)CCC3[C@@]2(C)CC1)C(=O)O (stereo not given in full)
  8, 4, 4, 1.5, -16, 1
> O=C(/C=C/c1ccc(S(=O)(=O)N2CCOCC2)cc1)OCC(=O)c1ccc([N+](=O)[O-])cc1
  -7, 9, -14, 0.1, 21, -3
> CCCN1C(=O)c2cccc3c(N4CCCCC4)ccc(c23)C1=O
  8, -6, 5, 8.5, -3, -8
> Cc1ccn2c(=O)nc(SCC(=O)NCc3ccc4c(c3)OCO4)nc2c1
  2, -7, 12, 2.0, -30, -41
> CCN(CC(=O)Nc1ccc(OC)cc1)C(=O)c1ccccc1Sc1ccccc1C#N
  0, 18, 7, 0.4, -16, 0
> CCNC(=O)Nc1ccc2c(c1)c(=O)n(C)n2CC=C(C)C
  -20, x, 9, -0.3, x, 6
> O=C(NCc1ccccc1F)C1CCN(C(=O)Nc2ccc(F)cc2)CC1
  -4, 17, 1, 0.2, 16, 0
> O=c1[nH]nc(SCc2ccccc2)n1C1CC2C=CC1C2 (stereo not given)
  -2, 4, 4, 2.0, 15, -3
> CCOc1ccc(NC(=O)CN(C)C(=O)c2ccc(OCC3CCCO3)cc2)cc1OCC (stereo not given)
  -5, 5, -17, 0.0, 1, -11
> O=C(NC(=S)N1CCOCC1)c1ccc(F)cc1
  25, 13, -6, 0.0, -9, -4
> O=C(CN1CCN(c2ccccn2)CC1)Nc1ccc(Br)cc1
  4, -20, 10, 1.2, 8, -3
> CC1(c2ccccc2)NC(=O)N(CC(=O)NCC2CCCO2)C1=O (stereo not given)
  11, 3, 4, 1.4, -14, -1
> O=C(CC1(CC2=NS(=O)(=O)c3ccccc3N2)CCCC1)NCCc1ccccc1
  6, -16, 2, -0.6, -9, -4
> CCCc1ncc(C(O)c2ccc(OC)cc2)n1C (stereo not given)
  9, -6, 1, -0.1, 2, -1
> COc1ccccc1-n1c(SCC(=O)Nc2ccc(Br)cc2)nc(O)cc1=O
  9, 14, 2, 0.6, -14, 2
> CC(C)(C)NC(=O)c1nn(Cc2ccccc2)c(=O)c2ccccc12
  7, -22, 10, 0.4, 3, -6
> O=C(CSc1nc2sc3c(c2c(=O)n1-c1ccccc1)CCCC3)N/N=C/c1ccccc1C(=O)O
  3, 10, -1, -0.8, 15, -4
> CCOc1ccc(N(CC(=O)N2CCCCCC2)S(C)(=O)=O)cc1
  x, -7, 3, 0.2, 4, 5
> CCOC(=O)c1sc(NC(=O)CN2C(=O)NC3(CC(C)CC(C)(C)C3)C2=O)cc1C (stereo not given)
  0, 23, -8, -0.1, 21, -5
> c1ccc(CCCN2CCOCC2)cc1
  8, 0, -3, -0.3, 1, -11
> Cc1ccc(CCC(=O)Nc2ccc(N(C)C)cc2)o1
  -2, -7, -5, 2.8, 38, -1
> COc1ccc(S(=O)(=O)N2CCCC2CNC(=O)C(=O)Nc2ccc(C)cc2)cc1 (stereo not given)
  -19, -20, -14, 1.4, 27, -7
> NS(=O)(=O)c1ccc(CCNC(=O)CSc2ccc(Cl)cc2)cc1
  11, -11, -3, 0.3, 14, 1
> CC(C)(CCl)C(=O)Nc1ccc(C(F)(F)F)cc1
  6, -18, 9, 0.8, 13, -22
> Cc1noc(COc2ccccc2OCC(N)=O)c1Cl
  7, -2, 4, -0.7, -5, 6
> Cc1cccc(NC(=S)N2CCCCC2)c1
  18, 10, 22, -0.9, -20, -2
> CCNC(=O)c1ccc(OCC(=O)Nc2ccc(F)cc2)c(OC)c1
  -11, -4, -13, -0.2, -2, -1
> Cc1ccc(C(=O)NCCn2cc(SCC(=O)Nc3cc(C)on3)c3ccccc32)cc1
  -7, 6, -2, 0.1, -2, 1
> CC(C)c1cc(-c2cc(C(=O)Nc3ccccc3)on2)nc(NC2CCCC2)n1
  2, x, 0, 1.2, 0, 2
> COc1cc(Cl)c(C)cc1NC(=O)COC(=O)C1CC1C (stereo not given)
  -8, x, 6, 3.9, 21, 0
> CCOCC(=O)Nc1ncc(S(=O)(=O)c2ccc([N+](=O)[O-])cc2)s1
  13, -2, 2, 1.8, 30, 24
> Cn1nccc1-c1coc2c(C(=O)NCc3ccccc3)cccc12
  u, x, -29, -0.6, x, -9
> O=C(CSCc1c(F)cccc1Cl)Nc1ccccc1C(=O)N1CCOCC1
  -2, 6, -10, -0.8, 4, -15
> COC(=O)c1cc(S(=O)(=O)NCC(C)c2ccccc2)cn1C (stereo not given)
  -4, -13, 1, 0.1, -9, -25
> O=C(NCC(c1ccco1)N1CCN(c2ccc(F)cc2)CC1)c1cccs1 (stereo not given)
  0, -9, -10, 0.1, 19, -2
> Cn1cnc(S(=O)(=O)NC2CCN(Cc3ccccc3)CC2)c1
  1, 8, 2, -1.0, -14, -6
> O=S1(=O)CCN2N=C(C34CC5CC(CC(C5)C3)C4)SC2=N1
  0, -21, 3, -0.2, 9, 7
> CN1C(=O)N(CC(=O)N2CCN(S(=O)(=O)/C=C/c3ccccc3)CC2)C(=O)C12CCCCC2
  x, 3, -5, -1.4, 1, -4

Individual results from the list.
Cn1nccc1-c1coc2c(C(=O)NCc3ccccc3)cccc12 in D2 potentiator → -9
CC(C)c1cc(-c2cc(C(=O)Nc3ccccc3)on2)nc(NC2CCCC2)n1 in Six1-Eya2 inh → 0
NS(=O)(=O)c1ccc(CCNC(=O)CSc2ccc(Cl)cc2)cc1 in Six1-Eya2 inh → -3
CCOCC(=O)Nc1ncc(S(=O)(=O)c2ccc([N+](=O)[O-])cc2)s1 in TRPML1 agonist → 1.8

Back to the main list, starting two compounds before the break.
Below each compound: CtBP-E1A blk, TRPV1 PAM, Six1-Eya2 inh, TRPML1 agonist, TRPML1 inh, D2 potentiator
> O=S1(=O)CCN2N=C(C34CC5CC(CC(C5)C3)C4)SC2=N1
  0, -21, 3, -0.2, 9, 7
> CN1C(=O)N(CC(=O)N2CCN(S(=O)(=O)/C=C/c3ccccc3)CC2)C(=O)C12CCCCC2
  x, 3, -5, -1.4, 1, -4
> Cn1c(=O)c2c(nc(CN3CCc4ccccc4C3)n2CC(=O)c2ccccc2)n(C)c1=O
  -10, x, -14, -0.4, 2, -11
> COc1cccc(/C=C2\C(=O)C(=O)c3ccccc32)c1
  1, 3, -3, 0.2, -6, 5
> COCCNC(=O)C1(C)CCCN(C(=O)c2cccc3ccccc23)C1 (stereo not given)
  1, x, 11, -0.3, x, -13
> CC(=O)Nc1ccc(S(=O)(=O)N2CCCC2C(=O)Nc2ccc3c(c2)OCCO3)cc1 (stereo not given)
  3, -4, 4, 0.1, -6, -1
> COCCNC(=S)N(Cc1cccnc1)Cc1ccc(OC)c(OC)c1
  -10, 14, 10, 0.5, 5, 10
> COCCCNC(=O)c1ccc(Cn2c(=O)[nH]c3ccccc3c2=O)cc1
  -1, 12, -3, -0.3, -7, 2
> Cc1cc(F)ccc1C(O)c1ncc(-c2cccc(OCc3ccccc3)c2)[nH]1 (stereo not given)
  -26, x, -20, -0.2, -9, -6
> Nc1ncc(Br)cc1S(=O)(=O)NC1CCCCC1
  2, 0, 1, -1.7, -6, -4
> CCN(CC)S(=O)(=O)N1CCC(C(=O)NCCC2=CCCCC2)CC1
  x, -15, 8, -0.4, -12, -4
> CC(=O)c1ccc(OCc2cc(C(=O)N(C)C(C)c3ccon3)no2)cc1 (stereo not given)
  16, x, 5, -0.1, 4, 15
> O=C(NCc1ccc2c(c1)OCO2)C(c1ccco1)N(C(=O)c1csnn1)c1ccccc1 (stereo not given)
  3, 7, 2, -0.4, 1, -7
> CCCc1nc(SCC(=O)NNC(=O)c2ccc(OC)cc2)c2ccccc2n1
  -8, -10, -13, 1.5, 16, -10
> CN1C(=O)c2ccc(NC(=O)C3CCCCC3)cc2C1=O
  -1, -4, -3, 0.0, -14, -3
> CCOc1cc(C(=O)CSc2nnc(CNc3ccc(Cl)cc3)o2)ccc1NC(=O)CC
  9, 2, -1, -0.9, 7, u
> Cc1ccc(CCNC(=O)c2nn(C)c3c2CS(=O)(=O)c2ccccc2-3)cc1
  -12, 15, 11, 1.2, -1, 0
> CC[C@@H](C)[C@@H](C(=O)N1CCN(C(=O)OC(C)(C)C)CC1)n1cc(CCCCNC(=O)OC(C)(C)C)nn1
  2, -14, -3, -0.8, -8, 25
> CCCCNC(=S)NNC(=O)CCn1nc(C)c(Br)c1C
  5, 1, 3, 0.4, -27, -46
> CCc1nc2ccc(C(=O)Nc3cccc(OCC(=O)N(C)C)c3)cn2c1N(C)Cc1ccc(OC)cc1
  -28, x, 0, -1.0, x, 4
> COc1ccc(-c2nc(=S)c3c(n2CCN2CCOCC2)CC(C)(C)OC3)cc1
  1, -2, -4, -0.9, 9, -8
> CCOC(=O)C1=C(SCC)c2cc3c(n2C1=O)CCCC3
  -16, -17, -17, 1.6, -9, -20
> O=S(=O)(c1cccs1)N1CN(Cc2ccc(Cl)cc2)c2nc3ccccc3nc21
  0, 17, -1, 3.5, 8, -1
> CC(C)(C)Cc1nc2ccccc2n1CCc1ccccc1
  -1, -8, 6, 0.9, 10, -4
> CC1Cc2ccccc2N1S(=O)(=O)c1cccc(C(=O)OCC(=O)N2CCOCC2)c1 (stereo not given)
  3, x, -5, -0.8, 6, -5
> COc1cc2ccccc2cc1C(=O)OCC(=O)N(CC(C)C)c1c(N)n(Cc2ccccc2)c(=O)[nH]c1=O
  -2, 6, -2, 5.8, 2, -6
> Cc1[nH]c2ccccc2c1/C=N/NC(=O)Nc1ccccc1
  x, 9, -3, 0.8, 3, -4
> Cc1ccc(S(=O)(=O)CC(=O)c2ccccc2[N+](=O)[O-])cc1
  x, 4, -4, x, x, 20
> CC(=O)Cc1nsc(NC(=O)c2cc(-c3ccc(Cl)c(Cl)c3)oc2C)n1
  3, -6, 0, -0.1, -2, -13
